PKD1 inh: inhibitors of human PKD1 kinase, biochemical, fluorescence polarization; actives 0.056% (n = 200,000); inhibition, %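 (about 10 µM by stock and volumes)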; Serine/threonine-protein kinase D1 (Homo sapiens), Q15139; PKD1 kinase fluorescence polarization assay;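 active means inhibition of 50% or more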;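 further: controls were vehicle for no effect and a reference inhibitor for full effect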
INS promoter inh: inhibitors of insulin promoter-driven GFP, primary screen, imaging, TRM-6 cells (human fetal islet line), eGFP reporter, cell count; actives 0.9% (n = 130,000); inhibition, % at 2 µM; AID 1273, 2008; reporter expression induced with tamoxifen;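 active means inhibition above the mean plus 3 SD, with well images judged a real hit on visual review, cut at about 60% in these data, passing the limit was not always enough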
GALR2 ag: GALR2 receptor agonists, primary screen, cell-based; actives 0.48% (n = 140,000); GALR2-expressing cells, agonist activation read-out; activation, %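 (tested at 5 µM)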;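 active means above mean plus 3 SD of all compounds, about 5% in these data, not always enough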;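 further: 0% = vehicle buffer wells and 100% = reference agonist at full effect; tested in CHO reporter cells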
Target sequence (O43603 whole entry, looked up): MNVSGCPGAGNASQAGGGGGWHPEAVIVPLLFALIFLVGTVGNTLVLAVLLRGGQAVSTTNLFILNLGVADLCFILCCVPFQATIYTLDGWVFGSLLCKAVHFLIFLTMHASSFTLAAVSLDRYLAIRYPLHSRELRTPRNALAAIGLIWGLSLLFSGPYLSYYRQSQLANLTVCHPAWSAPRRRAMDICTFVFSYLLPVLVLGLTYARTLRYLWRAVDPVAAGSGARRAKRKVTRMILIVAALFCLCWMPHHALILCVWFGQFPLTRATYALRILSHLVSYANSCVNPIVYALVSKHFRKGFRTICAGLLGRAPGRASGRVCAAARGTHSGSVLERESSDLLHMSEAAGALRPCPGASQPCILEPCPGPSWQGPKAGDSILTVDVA
RGS16-Gao HTS: modulators of RGS16 binding to Galphao, primary screen, biochemical, human proteins, multiplexed bead flow cytometry; AID 1441, 2008; Regulator of G-protein signaling 16 (Homo sapiens) + Guanine nucleotide-binding protein …; binding response (% of control), % at 10 µM; actives 0.38% (n = 220,000); bead-based flow cytometry RGS16-Galphao binding, fluorescence; actives lie on both sides;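 active means below 25% or above 175%, edge rows of some plates excepted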;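 further: Galphao activated by GDP with aluminum fluoride before binding; 100% = wells without compound and 0% = beads without RGS; some results beyond the cut were filed as inactive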
Target sequence (O15492 whole entry, looked up): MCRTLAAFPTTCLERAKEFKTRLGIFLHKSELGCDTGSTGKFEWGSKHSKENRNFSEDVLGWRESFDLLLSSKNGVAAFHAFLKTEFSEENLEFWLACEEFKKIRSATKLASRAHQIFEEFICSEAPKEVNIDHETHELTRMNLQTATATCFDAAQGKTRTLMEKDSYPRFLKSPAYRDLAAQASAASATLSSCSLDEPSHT
Target sequence (P09471 whole entry, looked up): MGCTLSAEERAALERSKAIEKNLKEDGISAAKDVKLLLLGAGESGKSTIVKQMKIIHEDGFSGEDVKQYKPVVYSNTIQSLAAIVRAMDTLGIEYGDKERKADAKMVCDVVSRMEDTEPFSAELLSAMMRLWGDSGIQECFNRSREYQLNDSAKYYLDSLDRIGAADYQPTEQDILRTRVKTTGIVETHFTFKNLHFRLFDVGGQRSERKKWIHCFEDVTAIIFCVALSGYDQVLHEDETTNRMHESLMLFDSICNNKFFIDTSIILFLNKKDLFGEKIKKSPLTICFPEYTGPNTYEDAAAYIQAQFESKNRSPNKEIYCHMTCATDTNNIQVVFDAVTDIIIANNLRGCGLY
HSV augment: enhancers of HSV replication in host cells, fold increase, host cell viability. maximum fold increase. AID 1956, 2009. actives 0.005% (n = 220,000). HSV replication augmentation in cells;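 active means peak rise of 1.5-fold or more in the series; tested in PC3 cells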;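 further: first round at 10 µM; read as green reporter fluorescence; hits show the peak of a series up to 25 µM; 1 = signal of infected wells without compound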
INS promoter inh cell count: recorded beside INS promoter inh, whose call it bears; normalized cell count, %; measured here: cell count, toxicity; reference of the scale not given here;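 cells exposed to compound for 48 h; stained nuclei by imaging scaled within each plate; lower means fewer cells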
HSV augment primary fold: further read-out of HSV augment, marked with its call; fold increase; compound at 10 µM; measured here: primary screen fold increase 10 uM; tested in PC3 cells;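 GFP signal in the first replicate; 1 = infected wells without compound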
The depositor's hits bear a star; i = inactive; · = not tested or not shown.

smiles	PKD1 inh	INS promoter inh	INS promoter inh cell count	GALR2 ag	RGS16-Gao HTS	HSV augment	HSV augment primary fold
Cc1cc(NC(=O)c2ccc(C#N)cc2)n(-c2ccccn2)n1	1.4	-6.7	94.4	·	95.2	i	0.92
COc1ccc(NC(=O)COC(C)=O)cc1OC	-6.3	·	·	·	96.8	i	0.93
CCOC(=O)Nc1cccc(NC(=O)c2cc(OC)cc(OC)c2)c1	-9.7	11.8	133.3	-0.7	102.5	i	0.95
COc1ccccc1-c1nnc(NC(=O)c2ccc(S(=O)(=O)N(C)C)cc2)o1	-0.3	·	·	-0.8	80.9	i	1
COc1ccc(CNS(=O)(=O)c2ccc3c(c2)CCN3C(=O)C2CC2)cc1	2.4	17.8	126.5	-2.0	4.6	i	0.84
Cc1ccc(C)c(NS(=O)(=O)c2cc(C(=O)N3CCCC3)ccc2Cl)c1	0.2	·	·	·	97.2	i	1.07
CCN(CC)CCNC(=O)c1ccc(NC(=O)c2ccc(F)cc2F)cc1	-0.8	·	·	·	99.5	i	1.06
COc1cccc(-c2nc3n(n2)C(c2cccs2)C(C(=O)Nc2cccnc2)=C(C)N3)c1 (stereo not given)	-11.0	0.0	100.3	-1.2	84.3	i	1.02
O=C(O)c1ccccc1SCC(=O)N1CCc2ccccc21	-6.3	·	·	·	103.2	i	0.91
Cn1cccc2[nH]c(=O)nc1-2	·	·	·	·	101.2	i	0.87
Nc1nnc(CC(=O)N/N=C/c2ccc(-c3ccccc3Cl)o2)s1	-8.2	·	·	-0.4	96.5	i	1.31
CCOC(=O)Cn1nnnc1C(CC)N(Cc1ccccc1)Cc1cc2cc(C)ccc2[nH]c1=O (stereo not given)	-1.6	50.0	137.9	-0.2	109.9	i	1.03
COc1ccc(-n2nc(C(=O)N3CCC(C#N)CC3)c3c4ccccc4n(C)c3c2=O)cc1	-18.4	·	·	-1.1	·	i	0.9
Cc1cc2ncn(C(=O)c3c(-c4ccccc4)noc3C)c2cc1C	-5.6	34.3	55.7	-1.2	103.8	i	0.84
CC(=O)NCCNC(=O)c1oc2ccccc2c1CSc1ncn[nH]1	-4.5	18.2	68.6	·	113.1	i	0.89
O=C(c1ccccc1Sc1ccc([N+](=O)[O-])cc1Cl)N1CCOCC1	0.8	-9.5	104.1	·	99.3	i	0.97
COc1ccc2occ(C(=O)c3ccccc3)c2c1	-10.2	·	·	·	97.9	i	0.92
CCOC(=O)N1CCN(C(=O)CN2C(=O)CC(C)(C)S(=O)(=O)c3ccccc32)CC1	-6.0	24.1	145.9	-2.9	81.6	i	0.88
O=C(COC(=O)c1ccc([N+](=O)[O-])s1)Nc1ccccc1	-5.0	2.6	138.4	0.2	104.6	i	1.05
CC(C)n1c(SCC(=O)N2CCN(C(=O)c3ccco3)CC2)nc2c1c(=O)n(C)c(=O)n2C	·	·	·	·	100.8	i	1.01
O=C(On1c(-c2ccccc2)nc2ccccc2c1=O)c1ccco1	3.4	-10.7	54.2	-1.3	95.7	i	0.86
CCOC(=O)c1ccc(NC(=O)C2CCN(S(=O)(=O)CC)CC2)cc1	3.7	43.8	76.5	0.0	105.1	i	1.04
CC(=O)Nc1cc(C(=O)OCC(=O)c2ccc(C)cc2)ccc1C	-16.9	7.1	146.0	-1.1	99.0	i	0.9
Cc1cccc(NC(=O)CC2Nc3cccc4cccc(c34)NC2=O)c1 (stereo not given)	-3.0	46.7	85.1	-3.5	101.7	i	0.94
c1ccc(-c2csc3ncnc(N4CCc5ccccc5C4)c23)cc1	2.5	0.0	154.9	-2.4	85.2	i	0.95

Whole records from above.
`COc1ccccc1-c1nnc(NC(=O)c2ccc(S(=O)(=O)N(C)C)cc2)o1` across the screens: PKD1 inh: -0.3; INS promoter inh: ·; INS promoter inh cell count: ·; GALR2 ag: -0.8; RGS16-Gao HTS: 80.9; HSV augment: i; HSV augment primary fold: 1
`CC(=O)NCCNC(=O)c1oc2ccccc2c1CSc1ncn[nH]1` across the screens: PKD1 inh: -4.5; INS promoter inh: 18.2; INS promoter inh cell count: 68.6; GALR2 ag: ·; RGS16-Gao HTS: 113.1; HSV augment: i; HSV augment primary fold: 0.89
`COc1cccc(-c2nc3n(n2)C(c2cccs2)C(C(=O)Nc2cccnc2)=C(C)N3)c1` (stereo not given) across the screens: PKD1 inh: -11.0; INS promoter inh: 0.0; INS promoter inh cell count: 100.3; GALR2 ag: -1.2; RGS16-Gao HTS: 84.3; HSV augment: i; HSV augment primary fold: 1.02

Continuation:
smiles	PKD1 inh	INS promoter inh	INS promoter inh cell count	GALR2 ag	RGS16-Gao HTS	HSV augment	HSV augment primary fold
COc1cc(CC(=O)NCCc2ccc(OCc3ccccc3)cc2)c([N+](=O)[O-])cc1OC	-2.4	51.4	75.4	-1.7	96.4	i	0.85
Cc1ccc(C2CN=NC23CCc2ccccc2C3=O)cc1 (stereo not given)	2.3	37.5	106.6	-2.4	71.1	i	0.93
CCC1CCC2(CC1)SCC(=O)N2c1ccccc1 (stereo not given)	·	·	·	·	106.1	i	1.02
Cc1ccc(C(=O)C[n+]2ccc(-c3nnc4n3CCC4)cc2)cc1	-0.4	·	·	-0.4	101.5	i	1.04
COCCCNC(=S)N1CCN(S(=O)(=O)c2ccc(OC)cc2)CC1	7.9	·	·	·	99.5	i	1.04
O=C(c1ccc2snnc2c1)N1CCSCC1	16.5	-35.7	157.6	-0.8	103.7	i	0.99
CCCCOC(=O)c1sc2nc(N3CCOCC3)c3c(c2c1N)CC(C)(C)OC3	·	·	·	·	91.7	i	1.04
CCC(C)[C@H](NC(=O)N1CCN(C)CC1)C(=O)OC (stereo not given in full)	9.2	-37.5	127.4	-1.5	101.6	i	0.99
COC(=O)C1(S(=O)(=O)C2(C(=O)OC)CCCC2)CCCC1	-6.9	41.9	74.2	-2.3	97.6	i	0.94
Cc1cc(NC(=O)CSc2nc3ccccc3n2CC(C)C)no1	-7.3	·	·	·	98.6	i	0.92
O=C(COC(=O)[C@H](Cc1ccccc1)NC(=O)c1ccco1)NCc1ccccc1	-4.2	·	·	-2.2	100.2	i	1.07
CC[C@@H](C)C(NC(=O)OC(C)(C)C)c1cn([C@@H](Cc2cc3ccccc3[nH]2)C(=O)N2CCN(C(=O)OC(C)(C)C)CC2)nn1 (stereo not given in full)	5.7	·	·	·	92.0	i	0.79
CCCC(=O)Nc1cccc(C(=O)Nc2ccccc2OCC)c1	-5.6	·	·	·	93.6	i	1.06
Cc1nc2sc(C(=O)O)c(N)c2c2c1COC(C)(C)C2	17.6	-68.8	76.6	-1.3	94.2	i	0.97
Cc1cc(NC(=O)CN2CCC(n3nnc4cc(C(F)(F)F)ccc43)CC2)no1	7.1	·	·	-1.6	99.7	i	0.73
Cc1nnc(SCCC(C)C)[nH]c1=O	-1.7	18.2	107.2	-1.8	107.3	i	0.93
CC(C)Cn1c(N)c(C(=O)CSc2nc3ccccc3c(=O)n2CCCN2CCOCC2)c(=O)n(C)c1=O	5.8	·	·	·	99.8	i	0.86
Cc1ccc(-c2nnc(N3CCN(C(=O)CN4C(=O)c5ccccc5C4=O)CC3)c3ccccc23)cc1	-1.6	30.6	113.4	0.8	·	i	0.94
Cc1c(NC(=O)CSC2=C(C#N)C(c3ccccc3F)CC(=O)N2)c(=O)n(-c2ccccc2)n1C (stereo not given)	-1.7	·	·	-1.6	87.8	i	1.03
O=C(O)C1C2C=CC(C2)C1C(=O)NCc1ccccn1 (stereo not given)	-1.4	12.1	109.4	-4.2	101.3	i	1.02
COc1cc2[nH]c(Cl)c([N+](=O)[O-])c2cc1OC	·	·	·	·	91.8	i	1.18
O=C(O)CCC(=O)NNC(=O)CCCOc1ccc(Cl)cc1Cl	0.4	25.7	146.2	-1.2	110.0	i	0.87
CCN(C(=O)c1cccs1)c1nnc(-c2ccncc2)s1	-0.2	-18.9	104.6	0.5	107.1	i	0.903
COC(=O)/C=C1\SC(N)=NC1=O	·	·	·	·	110.1	i	0.92
O=C(Nc1ccc(Cl)cc1)NC1(C(=O)NCCCN2CCOCC2)CCCCC1	-7.3	·	·	-5.4	105.5	i	1
COC(=O)CSc1nc2c(c(=O)n(C)c(=O)n2C)n1CCC(C)C	·	·	·	·	106.4	i	0.92
CC(=O)c1c(O)c(C)c(-c2ccccc2)n(-c2ccccc2)c1=O	10.0	·	·	-2.3	103.1	i	1.04
Cc1ccc(C)c(NC(=S)NNC(=O)c2sccc2C)c1	-8.4	17.1	111.9	-1.6	101.8	i	0.95
O=C(NCC1CCCO1)c1ccc(COc2ccc(F)cc2)o1 (stereo not given)	9.1	17.3	98.4	0.0	108.8	i	1.08
CN(CC(=O)Nc1ccccc1C(=O)N1CCCC1)S(=O)(=O)c1ccc(Cl)cc1	2.7	0.0	69.4	-1.3	107.0	i	0.98
S=C(c1ccc(-c2ccccc2)o1)N1CCCCC1	1.7	·	·	·	97.5	i	1.03
CCCOc1ccc(/C=N/Nc2ccccn2)cc1OC	-6.0	·	·	·	100.5	i	0.97
COc1ccc(S(=O)(=O)N(CC(=O)N/N=C/c2cccs2)c2ccc(C)cc2)cc1OC	1.8	13.3	99.5	-1.0	122.7	i	0.98
O=C(c1cc(COc2c(F)cccc2F)on1)N1CCC(c2ccccc2Cl)C1 (stereo not given)	-1.3	·	·	·	97.5	i	0.97
CC(C(=O)O)n1cnc2sc3c(c2c1=O)CCCC3 (stereo not given)	-1.4	·	·	·	100.2	i	0.91
CCOC(=O)C1=C(C)Nc2nc(C)nn2C1c1ccc(OCC)c(OC)c1 (stereo not given)	-3.8	·	·	·	97.0	·	·
CC(=O)C1=C(C)NC(SCC(N)=O)=C(C#N)C1C (stereo not given)	-0.7	21.4	85.9	-2.4	67.8	i	0.94
COC(=O)c1[nH]c2ccc(C)cc2c1NS(=O)(=O)c1ccc(F)cc1	-17.4	-9.7	44.0	-2.3	106.9	i	0.91
Cc1ccc(NC(=O)c2cc(=O)n(Cc3ccccc3)c(=O)[nH]2)cc1C	-6.7	·	·	·	105.2	i	1.11
COc1ccc(OC)c(C2=Nn3c(nnc3-c3cccc(OC(C)C)c3)SC2)c1	8.8	·	·	-0.3	85.6	i	0.83
OCCCc1nc2n(n1)C(c1ccccc1)C=C(c1ccc(F)cc1)N2 (stereo not given)	-7.5	-323.8	71.3	-0.5	95.1	i	1.17
Cn1c(=O)c2c(nc(Oc3ccc4ccccc4c3)n2C)n(C)c1=O	-3.1	28.6	113.5	-0.1	104.6	i	0.81
Cc1ccc(C2(CCNCc3ccc(N(C)C)cc3)CCOC(C(C)C)C2)cc1 (stereo not given)	3.3	·	·	·	102.7	i	0.68
CN1CCC(=NNC(=O)CN(c2ccc(Oc3ccccc3)cc2)S(C)(=O)=O)CC1	2.3	-454.6	86.5	-0.9	99.5	i	1.06

Given field by field: entries from further up
> CC(=O)C1=C(C)NC(SCC(N)=O)=C(C#N)C1C (stereo not given)
- PKD1 inh: -0.7
- INS promoter inh: 21.4
- INS promoter inh cell count: 85.9
- GALR2 ag: -2.4
- RGS16-Gao HTS: 67.8
- HSV augment: i
- HSV augment primary fold: 0.94

> COc1ccc(OC)c(C2=Nn3c(nnc3-c3cccc(OC(C)C)c3)SC2)c1
- PKD1 inh: 8.8
- INS promoter inh: ·
- INS promoter inh cell count: ·
- GALR2 ag: -0.3
- RGS16-Gao HTS: 85.6
- HSV augment: i
- HSV augment primary fold: 0.83

Assay outcomes: PubChem BioAssay, several laboratories
